MLL AF4-AF9 inh: inhibitors of AF4 peptide binding to AF9, primary screen, biochemical, AlphaScreen, biotin-AF4 peptide, FLAG-AF9, single point; inhibition, % at 10 µM; 350,000 tested, 0.47% active;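 active means every replicate reaching a set inhibition limit, whatever the replicate mean, cut at about 25% in these data; inconclusive means mean inhibition reaches that limit but some replicates miss it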;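 further: 0% = plate neutral control median and 100% = total signal loss; the record names both 10 and 1 µM as test concentration; the first replicate is given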
Target sequence (P42568 whole entry, looked up): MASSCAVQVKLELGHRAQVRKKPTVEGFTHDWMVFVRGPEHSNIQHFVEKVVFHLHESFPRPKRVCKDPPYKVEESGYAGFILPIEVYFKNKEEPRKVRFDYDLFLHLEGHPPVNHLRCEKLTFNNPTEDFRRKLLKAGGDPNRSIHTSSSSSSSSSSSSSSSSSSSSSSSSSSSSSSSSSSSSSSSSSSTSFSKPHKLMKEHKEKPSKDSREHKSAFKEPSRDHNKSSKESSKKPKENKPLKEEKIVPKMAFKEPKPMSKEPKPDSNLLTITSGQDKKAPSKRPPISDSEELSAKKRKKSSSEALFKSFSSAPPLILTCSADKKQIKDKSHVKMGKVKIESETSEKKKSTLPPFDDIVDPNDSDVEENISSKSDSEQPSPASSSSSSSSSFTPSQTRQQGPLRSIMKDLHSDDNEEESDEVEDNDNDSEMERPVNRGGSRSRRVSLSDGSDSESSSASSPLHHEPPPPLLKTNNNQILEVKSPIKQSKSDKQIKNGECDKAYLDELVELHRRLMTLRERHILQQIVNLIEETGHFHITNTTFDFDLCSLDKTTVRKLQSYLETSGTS
T cruzi repl: inhibitors of intracellular T. cruzi growth, primary screen, luminescence, NIH3T3 host cells | T. cruzi beta-gal in NIH3T3, 90 h | 300,000 tested, 1.4% active | inhibition, % (test concentration not listed);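 active means mean inhibition across valid replicates above about 55%, limit read from the data; inconclusive means mean below that limit but half or more replicates reach it; inactive means mean below it, under half of replicates reach it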;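 further: signal also drops with host cell toxicity which is not excluded here; 0% = plate median of DMSO wells and 100% = zero luminescence signal; higher percent means less beta-gal luminescence so fewer parasites; stock transfer was 50 nL into about 50 µL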
ALR H2O2 inh: inhibitors of human ALR sulfhydryl oxidase, primary screen, biochemical, H2O2 detection, HRP-luminol luminescence, single point | inhibition, % (test concentration not listed) | FAD-linked sulfhydryl oxidase ALR (Homo sapiens), P55789 | AID 485317, 2010 | 290,000 tested, 3.8% active | purified ALR, DTT oxidation;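 active means mean and each replicate at 75% or more; inconclusive means only one of the two met; inactive means neither met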;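 further: stock transfer was 7.5 nL into about 7.5 µL; 0% = neutral wells and 100% = wells with inactivated enzyme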
Target sequence (P55789 whole entry, looked up): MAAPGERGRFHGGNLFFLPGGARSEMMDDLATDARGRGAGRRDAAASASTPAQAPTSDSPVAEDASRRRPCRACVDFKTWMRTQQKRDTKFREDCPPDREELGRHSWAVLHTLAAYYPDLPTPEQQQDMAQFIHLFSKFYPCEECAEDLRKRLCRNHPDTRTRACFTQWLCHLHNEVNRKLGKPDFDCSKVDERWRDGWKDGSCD
Calb FLC: C. albicans growth inhibition with fluconazole, primary screen, CaCi-2 strain, Alamar Blue fluorescence. C. albicans CaCi-2 (fluconazole-resistant clinical isolate) + fluconazole, 48 h. growth inhibition, % (no concentration beside the values). 300,000 tested, 0.57% active;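 active means most replicates above 75%; inconclusive means exactly half above 75%; inactive means most below 75%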;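 further: all wells also contain fluconazole at 8 µg/ml as a sub-toxic cotreatment; 0% = median of DMSO wells and 100% = median of geldanamycin control wells; wells of about 8 µL received 7.5 nL stock; the first replicate is given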
FGF22 binding: binders of human FGF22 protein, primary screen, FGF22 synaptogenesis inhibitor project, biophysical, thermal shift, single point | 340,000 tested, 1.5% active | recombinant FGF22 thermal shift, SYPRO orange fluorescence; percent of sucrose octasulfate shift, DMSO zero | calls only at 9.99 µM;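 active means melting point raised past a set limit in the mean and every replicate; inconclusive means no clear call; three in four hits are not shown here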
Target sequence (Q9HCT0 whole entry, looked up): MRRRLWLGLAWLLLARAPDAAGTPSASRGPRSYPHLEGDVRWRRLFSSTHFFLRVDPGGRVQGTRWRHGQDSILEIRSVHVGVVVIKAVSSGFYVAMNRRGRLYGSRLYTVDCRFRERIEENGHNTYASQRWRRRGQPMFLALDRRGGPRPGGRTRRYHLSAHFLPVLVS
Beta cell apopt: inhibitors of cytokine-induced beta cell apoptosis, primary screen, luminescence; protection from apoptosis, % (test concentration not listed); 300,000 tested, 0.8% active; INS-1E cytokine-induced death, ATP luminescence, 48 h; percent of positive-control rescue, neutral wells zero;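 active means all replicates at 75% or more, or half of them and the mean; inconclusive means half reach 75% but not the mean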;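 further: 0% = cytokine-treated negative control wells and 100% = positive control rescue; higher means more ATP so stronger rescue from cytokine killing; wells of about 40 µL received 100 nL stock; the first replicate is given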
RanGTP-Impb inh: inhibitors of RanGTP-importin-beta interaction, primary screen, biochemical, FRET, CFP-Ran, YFP-importin-beta, homogeneous | cell-free CFP-Ran/YFP-importin-beta FRET ratio | inhibition, % (no concentration beside the values) | 300,000 tested, 1.1% active;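 active means most replicates above 15%; inconclusive means exactly half above 15%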;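 further: 0% = DMSO wells and 100% = Ran loaded with GDP instead of GTP; wells of about 40 µL received 100 nL stock; the first replicate is given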
Ecoli rRNA inh: reduced GFP signal of wild-type E. coli, primary screen, bacterial rRNA inhibitor project, GFP/RFP fluorescence, OD600, single point. E. coli WT GFP vs humanized-ribosome RFP mutants, 24 h; stronger effect = lower value; DMSO median 0, no signal -100. GFP signal change (wild-type ribosome), % (no concentration beside the values). 350,000 tested, 1.6% active;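 active means significant combined selectivity score with lowered wild-type GFP, culture density cut under 30%, mutant RFP and density less affected; inactive means any of these conditions unmet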; further: one replicate is shown; some compounds called inactive have numbers as strong as hits
Ecoli rRNA inh OD600: also measured in Ecoli rRNA inh; calls as there; OD600 change, %; measured here: OD600 growth;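 optical density of the mix in the first replicate; 0 = DMSO median and -100 = no signal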
Ecoli rRNA inh RFP: further read-out of Ecoli rRNA inh, marked with its call; RFP signal change, %; measured here: RFP humanized mutant strains;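 first replicate; 0 = DMSO median and -100 = no signal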
Active calls of the source: *; i = inactive; ? = inconclusive; · = no result given. These rows are one share of the data; rates above refer to the full screens.

Values run as follows: Calb FLC	Ecoli rRNA inh RFP	MLL AF4-AF9 inh	Ecoli rRNA inh	RanGTP-Impb inh	Beta cell apopt	T cruzi repl	FGF22 binding	Ecoli rRNA inh OD600	ALR H2O2 inh
> CCOC(=O)CSC1=C(C#N)C(c2ccc(Cl)cc2)C(C(=O)OC)C(=O)N1 (stereo not given)
 : 11	·	·	·	3.8	7	2	·	·	19
> CCN(CC)S(=O)(=O)c1ccc(N2CCOCC2)c(NC(=O)c2ccc(=O)[nH]c2)c1
 : ·	3.4	-6.0	7	·	2	·	i	9	-2
> COc1ccccc1NC(=O)COc1ccc(CO)cc1Cl
 : -3	·	·	·	4.4	-3	10	·	·	7
> Cc1ccnc(NC(=O)CCCOc2ccc(Cl)cc2C)c1
 : -11	1.0	0.2	3	0.5	-26	-5	i	-1	-10
> CN(C(=O)NC(=O)C1=C(N2CCOCC2)/C(=C/c2ccccc2)CC1)S(C)(=O)=O
 : 6	·	·	·	1.1	-1	12	·	·	16
> CC1CCCCN1C(=O)CSc1nnc(-c2ccccc2F)o1 (stereo not given)
 : -6	2.5	-1.1	-1	-0.1	-1	5	i	0	-6
> CC(=O)c1ccc(NC(=S)N2CCC(Cc3ccccc3)CC2)cc1
 : 0	-1.1	2.3	-23	-1.2	-7	-7	i	-22	-2
> O=C(Nc1ccc(Br)cc1)Nc1ccccc1Cl
 : ·	-6.7	-2.1	-25	1.2	24	5	i	-33	12
> O=C(COc1ccc(Cl)cc1)Nc1cccc(-c2ccc(N3CCOCC3)nn2)c1
 : -5	-3.3	-6.0	6	-1.0	22	16	i	16	·
> Nc1nc(/C=C/c2ccc(F)cc2)nc(-c2ccccc2O)n1
 : 37	6.3	5.2	14	4.3	15	-10	i	22	-21
> Fc1ccccc1-c1nnc2c3ccccc3nc(N3CCOCC3)n12
 : 24	·	·	·	1.0	5	10	·	·	·
> COc1ccc(CCN2CCCn3c2nc2c3c(=O)n(CC(N)=O)c(=O)n2C)cc1OC
 : 21	-1.9	-4.7	13	6.7	6	-10	i	13	3
> CCCN1C2=C(C(=O)CC(C)(C)C2)C(c2ccc(F)cc2)C2=C1c1ccccc1C2=O (stereo not given)
 : -3	·	·	·	2.6	10	44	·	·	8
> CN(C)c1cccc(-c2csc(N3CCC(C(N)=O)CC3)n2)c1
 : ·	-0.2	-1.5	3	·	-3	·	i	10	-3
> CCOC(=O)C1CCCN(c2c(C(=O)c3ccccc3)cnc3ccccc23)C1 (stereo not given)
 : ·	-5.9	17	-50	·	-2	0	i	-71	-15
> CC(C)C(=O)NNC(=O)CSc1ncnc2c1cnn2-c1ccccc1Cl
 : -2	-0.1	-11	12	3.8	3	-30	i	8	10
> O=C(COc1cccnc1[N+](=O)[O-])Nc1cccc(S(=O)(=O)N2CCOCC2)c1
 : -2	1.8	1.2	12	0.8	-5	46	i	7	2
> CN(CC(=O)Nc1ccc(OC(F)(F)F)cc1)C(=O)c1ccc(N2CCCC2=O)cc1
 : ·	-2.0	-2.2	1	·	8	·	i	6	-2
> CC1CCC2(CC1)NC(=O)N(CC(=O)N1CC(C)CC(C)C1)C2=O (stereo not given)
 : ·	-3.1	-0.8	10	·	-1	·	i	7	16
> Cc1ccc(C2NC(=O)Cc3ccccc32)cc1 (stereo not given)
 : 1	·	·	·	0.9	-3	-6	·	·	12
> CSc1ccccc1NC(=O)CSCc1ccccc1Br
 : -1	·	·	·	1.0	2	2	·	·	-13
> CS(=O)(=O)c1nc(S(=O)(=O)c2ccc(Cl)cc2)c(N2CCCCC2)s1
 : -3	0.8	0.6	15	-0.2	-13	-1	i	22	-4
> COc1ccc(OC)c(C(=O)NC(CC(N)=O)c2ccc(NCCOc3ccccc3)c([N+](=O)[O-])c2)c1 (stereo not given)
 : 21	0.7	6.0	2	4.3	4	7	i	7	3
> CCc1noc(C)c1C(=O)N(C)CC(=O)Nc1cccc(OC)c1
 : ·	·	-1.4	·	·	0	·	i	·	-2
> COc1ccc(COC(=O)c2ccc3c(=O)n4c(nc3c2)CCC4)cc1F
 : -5	1.3	-19	0	-2.8	-3	-3	i	5	-5
> CC1CCCCC12NC(=O)N(CC(=O)Nc1ccc(S(=O)(=O)Nc3ncccn3)cc1)C2=O (stereo not given)
 : ·	1.8	-1.5	15	·	6	·	i	22	91*
> CN(CC(=O)Nc1ccc(Cl)c(Cl)c1)C(=O)CNC(=O)C1CCCCC1
 : ·	3.6	-2.3	17	·	0	·	i	15	-2
> O=C(COC(=O)/C=C/c1ccco1)NCc1ccccc1Cl
 : 10	5.7	-11	6	4.0	-10	-6	i	23	3
> O=C(CNC(=O)c1n[nH]c2ccccc12)Nc1ccc(F)c(F)c1F
 : ·	-1.2	-1.1	7	·	-4	·	i	11	·
> CNc1sc(C(=O)c2cccs2)c(N)c1-c1nc2ccccc2s1
 : 6	·	·	·	-0.7	7	33	·	·	3
> Cc1ccc(S(=O)(=O)N2CCC(C(=O)NCC3CCCCC3)CC2)cc1
 : -14	-0.1	-8.6	3	?	1	19	i	14	25
> CNS(=O)(=O)c1ccc(C(=O)NCC(=O)NC(C)c2cccs2)cc1 (stereo not given)
 : ·	-0.4	-3.3	20	·	-8	·	i	10	·
> CC(=O)C1=NN(c2ccccc2)C2(S1)S/C(=C\c1ccccc1)C(=O)N2c1ccccc1 (stereo not given)
 : 2	·	·	·	-0.3	11	6	·	·	1
> CC(C)(C)c1cc(C(=O)NCCN2CCCC2)cc(C(C)(C)C)c1
 : 2	0.4	2.2	7	0.4	6	71*	i	1	-2
> COc1ccc(Cl)cc1NC(=O)CCn1c(=O)oc2ccccc21
 : 3	3.0	0.2	-6	1.9	2	-7	i	-34	-6
> Cc1ccc(SCC(=O)c2sc(-c3ccccc3)nc2C)cc1
 : -1	·	·	·	2.5	-11	8	·	·	-9
> CCOC(=O)CN/C=C(\C#N)c1ccc(F)cc1
 : -12	-1.5	0.5	8	0.5	-3	8	i	15	·
> CC1CCC(C(C)C)C(=O)/C1=C\c1ccc(NC(=O)CCC(=O)O)cc1 (stereo not given)
 : -26	3.6	1.7	-5	-5.1	0	3	i	10	-3
> O=C1CCC/C(=N/NC(=O)c2cc(NS(=O)(=O)c3cccs3)cc(NS(=O)(=O)c3cccs3)c2)C1
 : -5	-19	-7.8	-16	4.5	-2	-10	i	-35	44
> COc1ccc(-c2nc(S(=O)(=O)c3ccccc3)c(N3CCOCC3)o2)cc1
 : 2	·	-2.2	·	-1.3	-4	3	i	·	9
> CC(CN1CCN(C)CC1)OC(=O)c1ccc(Cl)cc1Cl (stereo not given)
 : 31	·	·	·	-1.7	-18	42	·	·	2
> NS(=O)(=O)c1ccc(NC(=S)NNC(=O)c2ccc(Br)o2)cc1
 : 1	5.9	0.3	16	-0.7	0	12	i	9	95*
> Cc1nc([N+](=O)[O-])cn1C(C)C
 : 2	-5.2	-4.4	4	23	-4	-4	i	7	-6
> CCOC(=O)C1=C(C)N(Cc2ccc(C(=O)O)cc2)C(=O)NC1c1ccc([N+](=O)[O-])cc1 (stereo not given)
 : -8	-9.0	-1.3	13	-1.6	-1	-18	i	11	7
> CCn1cc(C(=O)NCc2ccccn2)c(=O)c2cc(F)c(N3CCN(C)CC3)cc21
 : -18	·	·	·	0.6	-6	3	·	·	-5
> O=C1/C(=C\Nc2ccc(Cl)cc2)CCN1c1ncccn1
 : 6	·	·	·	1.9	-3	3	·	·	32
> COc1cc(OC)cc(-c2c(-c3cccs3)c3cc(-c4ccc5[nH]ccc5c4)ccc3n2C)c1
 : ·	-1.0	-0.3	8	·	0	·	i	11	-2
> COc1ccc(/C(C)=N\NC(=O)c2ccc3c(c2)OCO3)cc1OC
 : -13	-0.7	-1.4	4	·	-2	3	i	4	-5
> CC(C)CNC(C(=O)Nc1ccc([N+](=O)[O-])cc1Br)c1ccccc1 (stereo not given)
 : 8	·	·	·	2.7	26	17	·	·	-35
> COc1ccccc1N1CCN(S(=O)(=O)c2c(C)[nH]c(=O)[nH]c2=O)CC1
 : -10	0.0	-2.3	7	-2.8	0	-2	i	1	97*
> COc1ccc(-c2csc(Nc3ccc(S(N)(=O)=O)cc3)n2)cc1OC
 : 12	-0.4	10	-6	2.6	7	-31	i	-5	-4
> CN1CCN(C(=O)C2CC(c3ccc(F)cc3)=NO2)CC1 (stereo not given)
 : 12	-1.9	-0.8	9	1.8	1	-11	i	17	-13
> Cc1cc(-c2nn3c(-c4ccccc4)nnc3s2)c2ccccc2n1
 : 22	·	·	·	0.9	-3	0	·	·	-13
> COc1ccc(-n2cc(-c3ccccc3)c3c(=S)nc[nH]c32)cc1
 : 9	5.4	1.8	-1	2.2	7	22	i	-3	-7
> NC(N)=NC(=O)c1nc(Cl)c(N2CCCCCC2)nc1N
 : ·	·	15	·	·	5	·	i	·	-16
> CN(C)c1nnnn1-c1ccc(Oc2ccccc2)cc1
 : -15	3.4	-2.3	1	2.9	0	-28	i	-4	-1
> Nc1c(C=C2C=CC(=O)C=C2)c(=O)nc2snc(SCc3ccccc3)n12
 : 0	20	11	-21	3.2	-3	15	i	-7	-1

Compound activity (PubChem)
